Compound activity (PubChem)
VDR inhibitor: Inhibitors of the vitamin D receptor (VDR): qHTS; VDR-SRC2-3 peptide fluorescence polarization, 2 h; Potency, µM, for inactives: max response, negative = inhibition, usual class: inhibitors; hit rate 0.93% among 400,000; active = well fitted inhibition curve with a large enough effect; inconclusive = small, poorly fitted or top-dose-only effect, or another doubt; inactive = no such curve, though single readings can be large or run the other way; note: series mostly up to about 120 µM
Target sequence (P11473 whole entry, looked up): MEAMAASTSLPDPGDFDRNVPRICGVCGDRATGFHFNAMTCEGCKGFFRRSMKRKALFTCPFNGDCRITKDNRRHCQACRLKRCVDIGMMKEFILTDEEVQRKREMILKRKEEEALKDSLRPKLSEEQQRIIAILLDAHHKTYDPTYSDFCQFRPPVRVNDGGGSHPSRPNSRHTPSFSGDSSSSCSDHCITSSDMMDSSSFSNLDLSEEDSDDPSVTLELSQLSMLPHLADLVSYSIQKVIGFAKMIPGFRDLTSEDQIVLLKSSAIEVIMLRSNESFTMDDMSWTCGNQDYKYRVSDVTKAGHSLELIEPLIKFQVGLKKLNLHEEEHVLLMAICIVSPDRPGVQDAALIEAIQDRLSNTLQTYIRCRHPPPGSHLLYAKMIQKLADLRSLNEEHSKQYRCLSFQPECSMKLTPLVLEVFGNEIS
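After 23 nl compound addition and a short centrifugation, plates sat for 2 hours at ambient temperature; polarization of fluorescence then indicated loss of VDR binding to peptide SRC2-3.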
* marks the source's active call; other numbers are inactive results; ? = inconclusive; & = joins results of further samples; [ ] = remark or other dose. % is set by controls: 0 for no effect and ±100 for the full control effect; potency is the fitted concentration of half-maximal effect. These rows are one share of the data; the hit share may differ from the screen's.

The first three compounds (preview)
VDR inhibitor,mol
-5.1%,CC(=O)c1ccc(NC(=O)[C@@H]2CCCN2C2=NS(=O)(=O)c3ccccc32)cc1
8.8%,COc1ccc(C(=O)Nc2ccc3c(c2)CCCN3S(=O)(=O)c2ccc(C)cc2)c(OC)c1
-20.2%,COc1ccc(C2=NOC(C(=O)Nc3cc(C)on3)C2)cc1 (stereo not drawn)

The listing, from the first entry:
VDR inhibitor,mol
-5.1%,CC(=O)c1ccc(NC(=O)[C@@H]2CCCN2C2=NS(=O)(=O)c3ccccc32)cc1
8.8%,COc1ccc(C(=O)Nc2ccc3c(c2)CCCN3S(=O)(=O)c2ccc(C)cc2)c(OC)c1
-20.2%,COc1ccc(C2=NOC(C(=O)Nc3cc(C)on3)C2)cc1 (stereo not drawn)
-11.3%,CC(C)CN1CCC(=O)N([C@H](COc2ccccc2)c2ccccc2)CC1
10.7%,Cc1nc(C)c(CC(=O)N/N=C/c2ccc(O)cc2)c(=O)[nH]1
-18.6%,N#C/C(=C/c1cn(-c2ccccc2)nc1-c1cccc(S(=O)(=O)N2CCOCC2)c1)C(=O)NCc1ccco1
-1.1%,CCCN1CCN(CCCNC(=O)c2ccc3nc(N4CCC(C)CC4)sc3c2)CC1
31.1%[activator],CCOCCCNC(=O)c1cn(C)c2ccc(S(=O)(=O)N3CCCCC3)cc2c1=O
-29.3%,NC(=O)C1=C[C@@H](c2csc3ccccc23)C[C@@H](OCc2ccc(CO)cc2)O1
-7.0%,O=C(CCCCCN1C(=O)c2ccccc2C1=O)Nc1ccc(F)cc1
4.6%,CCc1c(O)c(-c2ccccc2)c(=O)n(-c2ccccn2)c1-c1ccccc1
-7.3%,Cc1cccc(N2CCN(CCCNC(=O)c3nnc(Cc4c(F)cccc4Cl)o3)CC2C)c1 (stereo not drawn)
3.5%,CCC1=Nc2cc(C(=O)NCCCOC(C)C)ccc2Sc2ccc(C)cc21
-8.7%,Cc1ccccc1CSc1nc2n(n1)C(c1cccs1)C1=C(CCCC1=O)N2 (stereo not drawn)
-1.5%,CN(Cc1ccccc1F)C(=O)CNC(=O)Cc1cccc2ccccc12
-12.5%,COc1cc(C2/C(=C(/O)c3ccc(F)cc3)C(=O)C(=O)N2CCCC(=O)O)ccc1O (stereo not drawn)
-2.7%,CCC(=O)Nc1cccc(-c2nc3ccccc3o2)c1
12.3%,CCS(=O)(=O)C1=NN2C(=N)/C(=C\c3ccc(SCc4ccco4)o3)C(=O)N=C2S1
-19.2%,O=C(c1ccc([N+](=O)[O-])cc1)N(c1ccccn1)c1ccccn1
7.7%,COc1ccc2c(c1)CC(N1CCN(C)CC1)c1cc(OC)ccc1S2 (stereo not drawn)
5.4%,CCOC(=O)CSc1nc2c([nH]c3ccccc32)c(=O)n1-c1ccc(OC)cc1
7.4%,N/C(CSc1ccc(Cl)cc1)=N\NC(=O)c1ccncc1
-23.4%,O=[N+]([O-])c1cccc(CSc2nnc(Cc3ccccc3)n2-c2ccc(F)cc2)c1
6.2%,Nc1cc(=O)[nH]c(SCc2ccc(Cl)cc2)n1
9.1%,C[C@@]12C(=O)Nc3ccc(Cl)cc3C(=O)N1[C@H]1c3cc(Br)ccc3OC[C@@H]1[C@@H]2c1ccccc1
-6.1%,COCCN(C(=O)COC(=O)Cc1cccc(OC)c1)c1c(N)n(CC(C)C)c(=O)[nH]c1=O
-1.1%,CCOC(=O)c1[nH]c2cc3c(cc2c1NC(=O)CN1CCC(C)CC1)OCO3
-5.9%,Cc1cc(C)nc(SC2CCCCC2O)n1 (stereo not drawn)
-0.4%,N=c1sccn1CC(=O)Nc1cc(S(=O)(=O)N2CCCC2)ccc1Cl
-15.0%,O=C(COc1ccc2c(c1)OCO2)NCc1cccs1
-3.7%,COc1ccc(CNc2nc(SCc3cc(=O)n4cc(Cl)ccc4n3)nc3ccccc23)cc1
31.4%[activator],CC1CC(C)CN(S(=O)(=O)c2ccc3c(c2)CCN3C(=O)CCC(=O)O)C1 (stereo not drawn)
-14.5%,CCN(CC)S(=O)(=O)c1ccc(Cl)c(NC(=O)COC(=O)C2CCCCC2)c1
-10.3%,O=C(O)CCC(=O)N1CCc2c([nH]c3ccccc23)C1C(F)(F)F (stereo not drawn)
3.1%,COc1ccc(CCNC(=O)Cn2cnc3c(cnn3-c3ccccc3Cl)c2=O)cc1OC
11.1%,c1ccc(-c2cc3c(N4CCCC4)ncnc3s2)cc1
-15.1%,Cc1ccc(NS(=O)(=O)c2ccc(NC(=O)c3cccc(NC(=O)C(C)C)c3)cc2)cc1
11.0%,COc1ccc(NS(=O)(=O)c2cccc(C(=O)N/N=C(/C)c3ccc(-n4ccnc4)cc3)c2)cc1
4.4%,CCN=C1SC(CC(=O)NCCc2ccc(OC)cc2)C(=O)N1CC (stereo not drawn)
10.1%,O=C(OCCOc1cccc(Cl)c1)c1cc(S(=O)(=O)N2CCOCC2)ccc1F
-9.0%,COCCCNC(=O)C[C@H]1C[C@H](C(=O)N2CCCCC2)[C@@]2(C)c3[nH]c4ccc(Cl)cc4c3CCN2C1=O
-18.7%,COc1ccc([N+](=O)[O-])cc1-c1[nH]c(-c2ccc(C(=O)O)cc2)nc1-c1ccccc1
7.1%,O=C(O)c1ccccc1C(=O)Nc1cc(C(F)(F)F)ccc1N1CCCC1
-2.4%,COc1ccc(-c2nsc(NC(=O)C(C)Oc3ccc(Cl)c(C)c3)n2)cc1 (stereo not drawn)
3.7%,CCn1c(=O)c(C(=O)Nc2ncccc2C)c(O)c2ccccc21
9.2%,CCCNC(=O)Cn1nc([N+](=O)[O-])c([N+](=O)[O-])c1C
-4.2%,COc1ccc(S(=O)(=O)N(C)c2ccc(C(=O)Nc3cccnc3)cc2)cc1
9.0%,O=C(CNC(=O)c1ccccc1Br)NCC(c1ccco1)N1CCCCC1 (stereo not drawn)
-17.0%,CC(=O)NNC(=O)c1nc(-c2ccccc2)c(C)o1
1.2%,COc1ccc(OCc2nnc(SC(C)C(=O)Nc3nccs3)n2-c2ccccc2)cc1 (stereo not drawn)
10.1%,O=c1c(N2CCN(c3cccc(C(F)(F)F)c3)CC2)csc2ccccc12
-7.0%,Cc1ccc(-c2csc3ncnc(Nc4ccc(N5CCOCC5)cc4)c23)cc1
8.5%,COc1cc(OC)c(OC)cc1/C=N/Nc1ccc(Cl)nn1
7.9%,Cc1ccc2occ(CC(=O)N(Cc3ccc(C(C)C)cc3)C3CCS(=O)(=O)C3)c2c1 (stereo not drawn)
-1.3%,CCCc1nnc(NC(=O)C2CCCO2)s1 (stereo not drawn)
-1.2%,COc1cc(/C=N/NC(=O)C(N)=O)ccc1OCC(=O)N1C(C)CCCC1C (stereo not drawn)
4.8%,O=C(/C=C/c1ccc(Cl)c([N+](=O)[O-])c1)Nc1cccnc1
9.9%,Cc1ccc(Nc2nc(N)nc(CSc3nccn3C)n2)cc1
-0.5%,CCc1nn(CC(=O)N2CCN(C)CC2)c(=O)c2cccn12
1.0%,CC1CN(CCOc2ccccc2[N+](=O)[O-])CC(C)O1 (stereo not drawn)

(more compounds)
VDR inhibitor,mol
10.3%,N#CC1=C(N)N=C(SCc2cccc3ccccc23)C(C(N)=O)C12CCCCC2 (stereo not drawn)
-9.3%,O=C(CCN1CCOCC1)N1CCc2c([nH]c3ccccc23)C1c1cccc(Cl)c1 (stereo not drawn)
-4.2%,O=C(CSCc1cccc(Br)c1)N=Nc1c(O)[nH]c2ccccc12
-22.9%,COc1ccc(/C=C/C(=O)C2CC2)cc1Cn1nc(C)c([N+](=O)[O-])c1C
7.3%,Cc1oc(-c2ccc(Cl)cc2)nc1CN1CCCN(C(=O)c2ccco2)CC1
-1.6%,Cc1ccc(Cn2ccc(NC(=O)c3nn(C)cc3[N+](=O)[O-])n2)cc1
9.9%,CC(=O)Nc1ccc(C(=O)NNC(=O)c2ccccc2-n2cccc2)cc1
-2.7%,Cn1c(CNC(=O)c2cccs2)nnc1SCC(=O)Nc1ccccc1
2.1%,Cc1cccc(CCNC(=O)CCc2nnc(CCc3ccccc3)o2)n1
-3.2%,O=C(Nc1ccc2nc3n(c(=O)c2c1)CCCCC3)C(=O)Nc1ccccc1F
-0.6%,CSc1nc(Cc2ccc(Cl)cc2)nc2ccccc12
-13.9%&6.6%,COc1ccc(CNC(=O)CCCn2nc(C)n3c(cc4sccc43)c2=O)cc1
-5.9%,Clc1c(CSc2nc3ccccc3o2)nc2sccn12
-6.5%,CN(C)c1ccc(/C=C(/NC(=O)c2ccccc2)C(=O)NCCN2CCOCC2)cc1
-12.5%,Cc1ccc(OCCNC(=O)/C=C/c2ccc([N+](=O)[O-])cc2)cc1C
-6.0%,NC(=O)CCC(NC(=S)Nc1ccccc1)C(=O)O (stereo not drawn)
7.3%,Cc1nc(NC(=O)COc2ccccc2)sc1C(=O)Nc1cccc(Cl)c1
-4.6%,O=C(CN1C(=O)NC(c2ccccc2)(c2ccccc2)C1=O)NCc1ccc(F)cc1
-0.5%,COc1cccc(C(=O)NC(=S)Nc2nnn(C)n2)c1
-7.1%,COc1ccc(Cc2cnc(N)s2)cc1
-18.2%,COc1cc(/C=N/NC(N)=O)cc(Br)c1OCc1ccc(C)cc1
0.7%,Cc1ccc(/C=N/NC(=O)Cc2ccc(O)cc2)s1
-13.3%&-10.1%,COc1ccccc1Nc1nc(C)cs1
-19.6%,CCCNC(=O)c1ccc(COc2ccc(Cl)cc2)o1
-15.7%,C=CC[C@@H](Cc1ccc(F)cc1)C(=O)OC[C@@H]1CCCN1C(=O)[C@@H](CC=C)CC(=O)N[C@H](CO)Cc1ccccc1
2.7%,COC(=O)[C@@H](NC(=O)N1CCC(C)CC1)C(C)C
-23.7%,O=C(Cn1c(Cc2ccccc2)nc2ccccc21)NCc1ccc2c(c1)OCO2
-9.5%,O=C(COc1ccc(Cl)cc1)NCCN1CCCCC1
0.7%,CC1CN(c2nc3c(c(=O)n(C)c(=O)n3C)n2Cc2c(F)cccc2Cl)CC(C)O1 (stereo not drawn)
?,COc1cc(OC)cc(C(=O)Nc2ccc([N+](=O)[O-])cn2)c1

Grouped by structure, the entries above with an NH in an aromatic ring
VDR inhibitor,mol
10.7%,Cc1nc(C)c(CC(=O)N/N=C/c2ccc(O)cc2)c(=O)[nH]1
5.4%,CCOC(=O)CSc1nc2c([nH]c3ccccc32)c(=O)n1-c1ccc(OC)cc1
6.2%,Nc1cc(=O)[nH]c(SCc2ccc(Cl)cc2)n1
-6.1%,COCCN(C(=O)COC(=O)Cc1cccc(OC)c1)c1c(N)n(CC(C)C)c(=O)[nH]c1=O
-1.1%,CCOC(=O)c1[nH]c2cc3c(cc2c1NC(=O)CN1CCC(C)CC1)OCO3
-10.3%,O=C(O)CCC(=O)N1CCc2c([nH]c3ccccc23)C1C(F)(F)F (stereo not drawn)
-9.0%,COCCCNC(=O)C[C@H]1C[C@H](C(=O)N2CCCCC2)[C@@]2(C)c3[nH]c4ccc(Cl)cc4c3CCN2C1=O
-18.7%,COc1ccc([N+](=O)[O-])cc1-c1[nH]c(-c2ccc(C(=O)O)cc2)nc1-c1ccccc1
-9.3%,O=C(CCN1CCOCC1)N1CCc2c([nH]c3ccccc23)C1c1cccc(Cl)c1 (stereo not drawn)
-4.2%,O=C(CSCc1cccc(Br)c1)N=Nc1c(O)[nH]c2ccccc12

Remaining list, next part:
VDR inhibitor,mol
?,O=C(Nc1cccc(C(F)(F)F)c1)c1cc(Br)cc(Br)c1O
-6.5%,CCCN1C2CCCC1CC(NC(=O)c1ccc(C(C)(C)C)cc1)C2 (stereo not drawn)
5.9%,COc1ccccc1-c1nc(NC(C)=O)n[nH]1
-24.5%,Cc1ccc(-c2cc(C(=O)Nc3nccs3)c3ccccc3n2)c(C)c1
-14.5%,COC(=O)c1c(-c2cccs2)csc1NC(=O)COc1ccc(C(C)(C)C)cc1
2.3%,CCN(CC)S(=O)(=O)c1cccc(-c2n[nH]c(=S)n2Cc2ccccc2)c1
6.5%,O=C(Nc1nc2ccccc2[nH]1)c1cccc(Cl)c1
-1.0%,Cc1ccc(OCC(=O)Nc2ccc(S(=O)(=O)Nc3ccccn3)cc2)c(C)c1
4.6%,Cc1nn(CCc2n[nH]c(=S)n2C)c(C)c1Br
0.8%,O=C(COC(=O)c1ccc(O)cc1)Nc1cccc(S(=O)(=O)NC2=NCCCCC2)c1
1.6%,O=C(CSc1ccc([N+](=O)[O-])cn1)Nc1ccc(N2CCOCC2)cc1
18.4%,CCNC1(C#N)CCN(Cc2ccccc2)CC1
16.8%,Cc1cccc2sc(NC(=O)c3ccc(Cl)s3)nc12
-3.7%&-3.7%,COC(=O)c1ccc(N2CC3CNC(=O)C2(C(=O)OC)N3C)cc1 (stereo not drawn)
2.6%,OCC[C@@H]1C[C@H](O)[C@@H](O)[C@]2(OCc3ccccc32)O1
-10.5%,Cc1cc(NC(=O)CSCC(=O)Nc2ccccc2N2CCCCC2)no1
20.5%,COc1ccc2cc(C(=O)NCc3ccccc3CN3CCCC3)ccc2c1
-2.0%,O=C(CN1CCCC1c1ccc2c(c1)OCCO2)NC(=O)Nc1ccccc1 (stereo not drawn)
-6.8%,COc1ccc(C(=O)N2CCN(C(=O)COc3ccc(C)cc3)CC2)cc1OC
-16.4%,Cc1cc(C)c(C(=O)Cn2cnc3cc([N+](=O)[O-])ccc3c2=O)cc1C
-9.7%,COc1cc(OC)c(NC(=O)c2cccc(F)c2)cc1Cl
-11.1%,COc1ccc(NC(=O)N2CCCC(c3nc(-c4ccc(OC)cc4)no3)C2)cc1 (stereo not drawn)
4.1%,Cc1ccc(CNC(=O)CNC(=S)N(Cc2ccccc2)Cc2ccccc2F)cc1
10.9%,Cc1ccc(C(=O)NC2CCCCCC2)o1
-1.9%,Cc1ccc(S(=O)(=O)NCC(=O)OCC(=O)Nc2ccc(C)c(S(=O)(=O)N3CCOCC3)c2)cc1
24.9%,CCc1ccc(NC(=O)N(CCCN2CCOCC2)C(C)c2cc3cccc(OC)c3o2)cc1 (stereo not drawn)
15.3%,O=C(CSc1nnc(-c2ccco2)o1)NC(=O)Cc1ccccc1
-12.9%,COC(=O)c1ccc2[nH]cc(CCO)c2c1
